From PubChem
TNAP act hiacc: TNAP (human) activation, high acceptor | P05186 | purified TNAP, CDP-star luminescence, 1 M DEA, 30 min; active compounds read high; 0 = EDTA background, 1 = DMSO-only activity | activation factor at 20 µM | 200,000 tested, under 10 active | AID 1136;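 active = activation factor at least 2 at 20 µM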
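Measured by: Luminescent substrate turnover signal | Test system: Human TNAP | Input: TNAP 1/800 final | Dosing: 20 µM single point | Schedule: 30 min, room temperature | Controls: EDTA wells as negative control, DMSO wells as positive control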
APP 5'UTR act: activates APP 5'UTR luciferase reporter | actives 1% (n = 190,000) | SH-SY5Y APP 5'UTR luciferase reporter, luminescence; zero percent = DMSO vehicle wells | activation, % at 2 µM;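 active = activation above a set limit, based on mean plus 3 SD of controls, cut at about 140% in these data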; also: values of inactives mirror those of a sister screen read the other way
bIAP act: increases bovine intestinal alkaline phosphatase activity; purified bovine IAP, CDP-star luminescence, 30 min; active compounds read high; fold of DMSO-control signal, blank-subtracted; activation factor at 20 µM; actives 0.17% (n = 200,000);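 active = activation factor of 2 or more at 20 µM, a signal rise over negative controls twice the positive control's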
TNAP inh noacc: inhibitors of human TNAP without phosphate acceptor. P05186. purified TNAP, CDP-star luminescence, 30 min. inhibition, % at 20 µM. actives 0.26% (n = 200,000);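 active = tissue-nonspecific alkaline phosphatase inhibition above about 50% at 20 µM in the single-dose screen, limit read from the data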;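 also: 0% = DMSO negative control and 100% = EDTA positive control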
FLuc act counter: firefly luciferase counter-screen for stimulation assays. 200,000 tested, under 10 active. AID 1027. activation factor at 10 µM. P08659. ATPlite luciferase biochemical, luminescence, 10 min; 0 = ATP-free wells, 1 = DMSO control;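 active = luciferase activation factor, scaled between plate controls, of at least 2 with compound at 10 µM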
Target sequence (P08659 whole entry, looked up): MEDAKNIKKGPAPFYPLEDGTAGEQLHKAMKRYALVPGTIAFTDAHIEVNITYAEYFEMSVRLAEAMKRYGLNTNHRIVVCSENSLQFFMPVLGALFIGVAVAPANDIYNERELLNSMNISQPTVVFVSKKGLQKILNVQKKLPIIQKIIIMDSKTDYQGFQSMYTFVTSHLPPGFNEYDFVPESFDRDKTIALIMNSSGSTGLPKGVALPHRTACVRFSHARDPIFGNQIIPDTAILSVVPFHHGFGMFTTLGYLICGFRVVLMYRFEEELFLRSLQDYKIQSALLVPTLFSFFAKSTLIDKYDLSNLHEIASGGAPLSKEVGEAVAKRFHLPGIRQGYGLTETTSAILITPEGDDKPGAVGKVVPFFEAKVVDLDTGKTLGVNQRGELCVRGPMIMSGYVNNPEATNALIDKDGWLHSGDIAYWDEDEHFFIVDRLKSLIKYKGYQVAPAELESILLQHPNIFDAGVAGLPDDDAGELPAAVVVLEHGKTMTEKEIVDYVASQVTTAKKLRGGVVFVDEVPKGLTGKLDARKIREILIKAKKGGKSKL
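Assay system – cell-free luciferase reagent · Medium – PBS-based ATP solution · Dosing – test compounds dosed from 2 mM stocks in 100% DMSO · Timing – 10 min, room temperature · Technique – light output (luminescence) · Measure – luminescence gain marking luciferase activators · Controls – No-ATP low control, compound-free enzyme-plus-ATP high control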
TNAP inh hi DEA: TNAP (human) inhibition, high acceptor. P05186. purified TNAP, CDP-star luminescence, 1 M DEA. inhibition, % at 20 µM. actives 0.03% (n = 200,000). AID 1135;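 active = over 50% inhibition of tissue-nonspecific alkaline phosphatase at 20 µM in the single-dose screen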;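 also: plate controls were DMSO wells for no effect and EDTA-quenched wells as full inhibition for full effect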
An asterisk follows results filed as active; . = not tested or not shown; & = joins results of further samples. A portion of the library; count on the stated rates, not on these rows.

#	SMILES	TNAP act hiacc	APP 5'UTR act	bIAP act	TNAP inh noacc	FLuc act counter	TNAP inh hi DEA
1	OC(CNCC1CCCO1)Cn1c2ccc(Cl)cc2c2cc(Cl)ccc21 (centres undefined)	1	-4	1	-2	1.1	-3
2	Cc1ccccc1CS(=O)(=O)Cc1ccc(C(=O)NCCCN2CCOCC2)o1	1	21	0.9	-9	1	-1
3	CCOC(=O)/C(C#N)=C\C1=C(N2CCCC2)CC(C)(CC)OC1 (centres undefined)	0.9	.	1.1	8	1.1	8
4	NS(=O)(=O)c1cc2c(cc1Cl)NCNS2(=O)=O	1	-3	0.9	-3	1	-2
5	CCCCNC(=O)NS(=O)(=O)c1ccc(C)cc1	1	-13	0.9	-4	1	2
6	Cn1c(NCCN2CCOCC2)nc2c1c(=O)n(Cc1cccc(Cl)c1)c(=O)n2C	1	5	1.1	-1	1.1	0
7	CCCc1cc(C(N)=O)c(NC(C)=O)s1	1	0	0.9	-10	1	-2
8	C[C@H]1C[C@H]2[C@@H]3CCC4=CC(=O)C=C[C@]4(C)[C@@]3(Cl)[C@@H](O)C[C@]2(C)[C@@]1(O)C(=O)CO	1.1	66	1.8	-9	1.1	-6
9	CCn1cc[n+](C)c1P(c1ccccc1)c1ccccc1	1	4	0.9	-3	1.2	-2
10	COc1ccc(-c2coc3cc(O)cc(O)c3c2=O)cc1	1	124	0.5	-8	0.7	-1

Continued.
#	SMILES	TNAP act hiacc	APP 5'UTR act	bIAP act	TNAP inh noacc	FLuc act counter	TNAP inh hi DEA
11	Cc1ncc([N+](=O)[O-])n1CCO	1&1.1	26	1&0.9	-15&-13	1&1	-2&-8
12	CC1(C)CC(=O)C2=C(C1)OC(N)=C(C#N)C2c1ccccc1OC(=O)N1CCOCC1 (centres undefined)	1	8	1	-10	1	-3
13	O=C(O)CCNC(=O)c1ccccc1	1	3	1	-12	1.1	-3
14	Cc1cccc(CN2CCN(C(c3ccccc3)c3ccc(Cl)cc3)CC2)c1 (centres undefined)	1	6	0.9	-12	1	-2
15	CC(C)c1ccc(NC(=O)COC(=O)C2=COCCO2)cc1	1	4	0.9	-2	1	2
16	Nc1cnn(C2OC(CO)C(O)C2O)c(=O)n1 (centres undefined)	1	-3	1	-8	1	-2
17	Clc1ccc(-c2noc(CN3CCN(c4ccccc4)CC3)n2)cc1	1	3	0.9	-8	1	-1
18	Cc1cc(C(C)(C)C)cc(C)c1CC1=NCCN1	1	-1	0.9	-1	1	-2
19	CCOC(=O)/C(C#N)=C/C1=C(N2CCCC2)CC(C)(CC)OC1 (centres undefined)	1	-9	0.8	8	1.1	3
20	NC(=O)c1cccnc1	1	0	0.9	-5	1	1

The listing continues:
#	SMILES	TNAP act hiacc	APP 5'UTR act	bIAP act	TNAP inh noacc	FLuc act counter	TNAP inh hi DEA
21	CC(C)C[C@H]1C(=O)N2CCC[C@H]2[C@]2(O)O[C@](NC(=O)[C@@H]3C=C4c5cccc6[nH]c(Br)c(c56)CC4N(C)C3)(C(C)C)C(=O)N12 (some centres undefined)	1	6	0.8	-8	1.1	-3
22	Cc1cc(C(F)(F)F)nc(SCC(=O)NC2=NC(=O)C(C)S2)n1 (centres undefined)	1	2	1	-18	1.1	-5
23	CN(C)CCN=c1cc(-c2ccccc2)oc2ccc(Cl)cc12	1	158*	1.1	-21	0.7	-2
24	Cc1ccc(S(=O)(=O)N[C@H](C(=O)N2CCC(C(=O)N3CCC[C@H]3C(=O)O)CC2)C(C)C)cc1	1	-4	1.1	-10	1	-3
25	O=C(Cc1ccc(Cl)cc1)Nc1ccc(N2CCN(C(=O)c3ccco3)CC2)cc1	1	-6	0.9	-5	1	0
26	CC1(C)S[C@@H]2[C@H](NC(=O)[C@H](N)c3ccccc3)C(=O)N2[C@H]1C(=O)O	1	5&13	1	-9	1	-3
27	COc1ccc(N2CCN(C(=O)CC3NC4CCCCC4NC3=O)CC2)cc1 (centres undefined)	1	20	1	-8	1.1	0
28	O=C(O)C1CC=CCC1C(=O)NCc1cn2ccccc2n1 (centres undefined)	1.1	14	1	-15	1	-6
29	Cc1ccccc1Nc1nnc(SCC(=O)NCc2ccco2)s1	1.1	2	0.9	-12	1.1	-8
30	O=C(CSCc1ccc(F)cc1)N1CCN(c2ccccc2)CC1	1.1	13	0.9	-12	1	-9

(next part)
#	SMILES	TNAP act hiacc	APP 5'UTR act	bIAP act	TNAP inh noacc	FLuc act counter	TNAP inh hi DEA
31	CN1\C(=C/C=C/C=C/C=[N+](C)C)C(C)(C)c2ccccc21	1.1	-10	0.8	-194	0.5	-13
32	O=C(CCS(=O)(=O)c1ccc(Br)cc1)N1CCN(c2ccccc2F)CC1	1	-7	1	-9	1.1	-2
33	CC(N)C12CC3CC(CC(C3)C1)C2 (centres undefined)	1	5	1.1	-2	1	0
34	CCc1nc(N)nc(N)c1-c1ccc(Cl)cc1	1	9	0.1	-11	1.1	-4
35	N=C(N)N1CCc2ccccc2C1	1	11	1.1	-10	1.1	-3
36	CN(C)Cc1cc(C(C)(C)C)c(O)c(C(C)(C)C)c1	1	17	0.9	-8	1	-2
37	CN=C(NC#N)NCCSCc1nc[nH]c1C	1.1	8	0.9	-13	1.1	-5

Ordered by value in APP 5'UTR act (ascending): 3 of the compounds above.
# | smiles | APP 5'UTR act
24 | Cc1ccc(S(=O)(=O)N[C@H](C(=O)N2CCC(C(=O)N3CCC[C@H]3C(=O)O)CC2)C(C)C)cc1 | -4
20 | NC(=O)c1cccnc1 | 0
35 | N=C(N)N1CCc2ccccc2C1 | 11

Part of the list above in a different format:
Each structure is followed by: TNAP act hiacc | APP 5'UTR act | bIAP act | TNAP inh noacc | FLuc act counter | TNAP inh hi DEA
32: O=C(CCS(=O)(=O)c1ccc(Br)cc1)N1CCN(c2ccccc2F)CC1
    1 | -7 | 1 | -9 | 1.1 | -2
33: CC(N)C12CC3CC(CC(C3)C1)C2 (centres undefined)
    1 | 5 | 1.1 | -2 | 1 | 0
34: CCc1nc(N)nc(N)c1-c1ccc(Cl)cc1
    1 | 9 | 0.1 | -11 | 1.1 | -4
35: N=C(N)N1CCc2ccccc2C1
    1 | 11 | 1.1 | -10 | 1.1 | -3
